Hsc70: Hsc70 inhibitors, probe displacement, primary screen, biochemical, fluorescence polarization (AID 568); Hsc70 fluorescence polarization, probe displacement; higher % means a stronger effect; strong numbers were not always called active; displacement, % at 20 µM; hits with a dose series show IC50 in µM; 83,000 tested, under 10 active;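 active = displacement above 50% without optical interference and an IC50 on retest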;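 note: ATPase domain with a fluorescein-tagged ATP probe; 0% = vehicle and 100% = excess ADP; read after one hour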
WNV protease inh: blocks West Nile virus NS2B-NS3 protease activity. z-score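 (tested at a level between 10 and 100 µM)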. 65,000 tested, 0.18% active. WNV NS2B-NS3 protease, fluorogenic substrate Ex360/Em465; stronger effect = lower value. AID 577. P06935;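 active = z-score at -3 or under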;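 note: score is relative to mean and spread of the compound wells of a plate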
Target sequence (P06935 1371-1501 limits assumed): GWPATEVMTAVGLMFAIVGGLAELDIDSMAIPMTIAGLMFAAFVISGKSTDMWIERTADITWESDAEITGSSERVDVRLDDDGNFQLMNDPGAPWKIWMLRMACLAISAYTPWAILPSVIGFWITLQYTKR
Target sequence (P06935 1502-1679 limits assumed): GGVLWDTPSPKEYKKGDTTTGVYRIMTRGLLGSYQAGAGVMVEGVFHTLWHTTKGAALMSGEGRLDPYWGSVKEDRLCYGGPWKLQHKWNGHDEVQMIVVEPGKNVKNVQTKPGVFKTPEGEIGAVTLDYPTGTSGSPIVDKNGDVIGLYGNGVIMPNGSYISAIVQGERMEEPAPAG
MT1-MMP reporter: inhibitors of MT1-MMP promoter transcription, cell-based, luciferase reporter, luminescence (AID 618); MT1-MMP promoter luciferase reporter cells, luminescence; calls from a first round at 10 µM; hits with a dose series show EC50 in µM; 87,000 tested, 0.62% active;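 active = over half of the reporter light lost at 10 µM or EC50 under 50 µM; inactive = the rest and hits that failed the dose series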;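 note: actives suppress MT1-MMP promoter-driven transcription so potencies describe inhibitors; HT1080 fibrosarcoma cells; overnight exposure; toxic or luciferase-blocking compounds were not removed from the actives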
Active calls of the source: *; i = inactive; . = no result given.

Values run as follows: Hsc70	WNV protease inh	MT1-MMP reporter
- CCCC(=O)C1=C(O)C(C(=O)OC)C(C)(C)CC1=Nc1ccncc1 (stereo not given)
  -0.9%	0.75	i
- CC(C(=O)Nc1ccccc1C(=O)N1CCOCC1)N(c1ccccc1)S(C)(=O)=O (stereo not given)
  -5.5%	.	i
- CCCN1Cc2cccc(C(N)=O)c2C1=O
  2.0%	-0.76	i
- O=C(NCc1ccccn1)c1cn(CCc2ccccc2)nn1
  -2.6%	-0.03	i
- CN1C(=O)CSC1=NC12CC3CC(CC(C3)C1)C2
  -1.3%	.	i
- NC(=O)C1CCN(c2nc(-c3ccccc3)nc3c2oc2ccccc23)CC1
  -3.1%	1.2	i
- Cn1c(SC/C=C/c2ccccc2)nnc1-c1cnccn1
  0.9%	1.2	i
- O=C(CCn1c(=O)c2sccc2n(Cc2cc(=O)n3ccccc3n2)c1=O)NCc1ccco1
  3.6%	1.1	i
- CC1=C(C(=O)OCc2ccc3c(c2)OCO3)C(c2ccccc2)NC(=O)N1 (stereo not given)
  4.2%	-1.2	i
- COC(=O)c1c(NC(=O)CN2CCN(c3ccccc3OC)CC2)c2c(C)cccc2n1C
  1.1%	-0.03	i
- CCOC(=O)N1CCC(N2Cc3cccc(C(=O)Nc4ccc(OC)c(OC)c4)c3C2=O)CC1
  -4.3%	0.04	i
- C=CCn1c(=O)c(C(=O)NCCNCC)c(O)c2ccccc21
  -1.9%	-0.94	i
- COc1ccc2cc(CCC(C)=O)ccc2c1
  -2.8%	.	i
- CCC(C)[C@H](NC(=O)N1CCCC1)C(=O)O (stereo not given in full)
  -4.2%	0.74	i
- CCC(=O)N1c2ccccc2[C@@H](N(C(C)=O)c2ccccc2)C[C@H]1C
  3.4%	0.39	i
- COCCNc1c(-c2ccc(O)cc2)nc2ccc(Cl)cn12
  5.8%	0.2	i
- COc1cc2c(cc1OC)CN(C(=O)CCCN1C(=O)c3ccccc3C1=O)CC2
  -2.8%	-1.1	i
- Cc1cccc(N2CCN(C(c3cccs3)c3nnnn3C(C)(C)C)CC2)c1C (stereo not given)
  -0.7%	-1.1	i
- CCC(C)NC(=O)COc1ccc(S(=O)(=O)N2CCOCC2)cc1 (stereo not given)
  -2.6%	-0.5	i
- COc1ccc(-c2cc(C(=O)NCc3cccnc3)no2)cc1OC
  -0.5%	1.1	i
- CCCCNC(=O)c1ccccc1NC(=O)c1ccccc1N(C)S(C)(=O)=O
  -1.7%	0.99	i
- CCn1c(SCCOc2ccc(Cl)cc2)nnc1-c1cccs1
  1.9%	0.54	i
- Cc1ccc(C(C(=O)NCc2ccco2)N(CCc2ccccc2)C(=O)Cn2nnc3ccccc32)o1 (stereo not given)
  -9.9%	-0.18	i
- CCCCOc1ccc(CSc2n[nH]c(C)n2)cc1
  5.0%	-0.17	i
- Cn1nnc(NC(=O)c2ccc(C(C)(C)C)cc2)n1
  1.6%	0.54	i
- O=C(Nc1ccc(Oc2ccccc2)cc1)C1CCN(c2c3c(nc4ncnn24)CCC3)CC1
  1.3%	.	i
- N#Cc1nc(Cc2ccccc2)oc1NCc1ccccc1
  -1.2%	.	i
- O=C(CCN1C(=O)c2ccccc2C1=O)NCCC1=CCCCC1
  3.3%	-0.11	i
- CCOC(=O)c1cnc(SCc2nc(N)nc(Nc3ccc(F)cc3)n2)nc1N
  1.1%	0.03	i
- CCOC(=O)c1nn(-c2ccc(C)c(C)c2)c(=O)c2c(N)scc12
  -1.4%	.	i
- COc1cccc(-c2nnc(Nc3nc4c(F)cccc4s3)o2)c1
  -5.3%	1.5	i
- COC(=O)c1sc(S(=O)(=O)N2CCN(c3ccc(OC)cc3)CC2)c(C(=O)OC)c1C
  -0.7%	.	i
- CCOc1cc(C2C(C(=O)c3ccco3)=C(O)C(=O)N2CCc2ccccc2)ccc1O (stereo not given)
  4.5%	-1.3	i
- COc1ccc(/C=N/Nc2ncnc3scc(-c4ccccc4)c23)cc1OC
  1.6%	.	i
- Cc1cc(NC(=O)c2cc(-c3ccco3)on2)n(-c2ccccc2)n1
  -3.0%	-0.92	i
- COc1cc(C(=O)Nc2ccc(NC(=O)C3CC3)nc2)cc(OC)c1OC
  -7.3%	-0.67	i
- CC1(C)CC(=O)C2=C(C1)Nc1ncnn1C2c1ccccn1 (stereo not given)
  -0.1%	-0.1	i
- O=C(NCC1CCS(=O)(=O)C1)NCC1CCS(=O)(=O)C1 (stereo not given)
  3.9%	1.2	i
- c1ccc2oc(SCc3cn4ccccc4n3)nc2c1
  -0.3%	-0.35	i
- CCOC(=O)N1CCN(Cc2nc3c(c(=O)n(C)c(=O)n3C)n2CCCc2ccccc2)CC1
  -2.4%	1.4	i
- COCCN(C(=O)Nc1ccc(OC)cc1OC)C1CCN(C(C)C)CC1
  -2.0%	-0.54	i
- Cc1cc(C)c2c(N)c(C(=O)Nc3nccs3)sc2n1
  -0.1%	1.1	1.3µM*
- CCOC(=O)c1cnn(-c2ccccc2)c1NC(=O)c1ccccc1C
  1.7%	.	i
- COc1ccccc1-c1nnc2sc(COc3ccc(Cl)cc3Cl)nn12
  0.9%	0.46	i
- C=CCn1c(SCC(=O)Nc2ccc3c(c2)OCO3)nc2ccccc2c1=O
  3.0%	0.02	i
- CCOC(=O)c1sc(N)c(C#N)c1COC(=O)CNC(=O)c1ccccc1
  -59%	-0.23	i
- COc1nc(-c2ccccc2)ccc1-c1noc(-c2ccccc2)n1
  -5.1%	0.35	i
- Cc1ccccc1Cn1ccc(NC(=O)c2cnn3c(C(F)(F)F)cc(-c4ccco4)nc23)n1
  0.8%	-0.72	i
- CCOc1ccc(NC(=O)CN2CCN(CC(=O)Nc3cc(OC)cc(OC)c3)CC2)cc1
  -7.9%	-1.1	i
- CCOc1ccccc1NC(=O)C1CCCN(C(=O)NCc2ccccc2)C1 (stereo not given)
  3.1%	-0.62	i
- CC1CCN(c2nc3c(c(=O)[nH]c(=O)n3C)n2CCCc2ccccc2)CC1
  2.6%	-0.61	i
- CN1CCCCc2c1nc1c(c2N)CCCC1
  3.6%	-0.02	i
- Cn1c(SCC(=O)OC2CCCCC2)nnc1-c1ccco1
  2.3%	.	i
- Brc1ccccc1-c1nnc(-c2cccnc2)o1
  9.3%	0.06	i
- CC(=O)N(CCCc1ccc(C(C)(C)C)cc1)CCCN(C)C
  -6.2%	-0.05	i
- CCOc1ccc(OCC)c(NC(=O)C2CCCN(S(=O)(=O)c3cccs3)C2)c1 (stereo not given)
  -2.2%	0.17	i
- CC(=O)NC1=NN(C(C)=O)C2(CCCCC2)S1
  4.2%	.	i
- N#Cc1ccc(OCC(=O)N2CCN(S(=O)(=O)c3cccs3)CC2)cc1
  0.5%	1.6	i
- CC(N=c1ccccn1C(=O)Nc1ccc(F)cc1)c1ccco1 (stereo not given)
  1.2%	0.82	i
- CN(C)c1nc(N)nc(Nc2ccccc2C#N)n1
  2.9%	0.27	i

Further structures:
Values run as follows: Hsc70	WNV protease inh	MT1-MMP reporter
- COc1ccc(OC)c(-c2cc(C(=O)Nc3c(C)nn(Cc4ccc(Cl)cc4)c3C)no2)c1
  -7.4%	-0.61	i
- Cn1c(CCNC(=O)c2ccco2)nc2cc(NS(=O)(=O)c3ccc(Cl)cc3)ccc21
  2.9%	-1.7	i
- Cc1cc(=O)oc(C)c1C(=O)Nc1ccc2ncccc2c1
  20%	.	i
- O=C(NCCN1CCOCC1)c1cccc(Cl)c1
  1.0%	-1.1	i
- CCCCC(=O)Nc1ccc2oc(-c3cccnc3)nc2c1
  -5.1%	-0.87	i
- O=S(=O)(c1ccc2c(c1)OCCO2)N1CCN(Cc2ccccc2)CC1
  -1.2%	.	i
- CC(=O)Nc1ccc2c(c1)n(C)c(=O)n2C
  -0.3%	0.21	i
- Cc1ccc(NC(=O)Cn2nc(C)c3ccccc3c2=O)cc1
  1.2%	0.24	i
- O=C(Cn1nnc(-c2ccccc2Cl)n1)N1CCN(S(=O)(=O)c2ccc(Cl)cc2)CC1
  2.7%	-0.92	i
- O=C(NC(=O)c1ccccc1)NC(=O)c1ccccc1
  1.7%	.	i
- c1ccc(CCNc2ccc3nncn3n2)cc1
  8.8%	0.02	i
- Cc1ccc(-c2csc(=S)n2CC(=O)OCC(=O)NC(C)C(C)C)cc1 (stereo not given)
  -1.4%	.	i
- O=C(CN(c1cccc(C(F)(F)F)c1)S(=O)(=O)c1ccccc1)N1CCOCC1
  -1.7%	1.4	i
- CN1CCN(CC(O)COCc2ccc3c(c2)OCO3)CC1 (stereo not given)
  8.4%	-0.43	i
- CCn1c(CSc2nnc(-c3cccnc3)n2-c2ccccc2C)nc2cc(C(=O)O)ccc21
  2.1%	0.12	i
- COc1cc(-c2noc(-c3ccccc3C(=O)NCc3ccco3)n2)cc(OC)c1OC
  -2.7%	0.37	i
- COc1ccc(-c2onc3ccc(Cl)cc23)cc1OC
  2.8%	0.26	i
- CCOC(=O)c1c(NC(=O)CSc2n[nH]c(CNc3ccccc3)n2)sc(C)c1C
  0.1%	.	i
- Cc1cc(C)cc(C(=O)/C=C2\NC(=O)CS2)c1
  -4.6%	-0.75	i
- CCCc1cc(=O)oc2cc3oc(C)c(C)c3cc12
  3.8%	0.06	i
- CC1(C)Cc2c(c(-c3ccco3)nc3n[nH]c(N)c23)CO1
  -2.2%	0.95	i
- COc1ccccc1C1NC(c2ccccc2OC)C(C)C(=O)C1C (stereo not given)
  3.9%	.	i
- CCS(=O)(=O)N1CCCC(C(=O)NCCc2ccc(C)cc2)C1 (stereo not given)
  1.5%	.	i
- Cn1c(SCc2nc(-c3ccc(Cl)cc3)no2)nnc1-c1cccs1
  -2.3%	.	i
- COc1ccc(C(=O)Nc2ccccc2C(=O)NCc2ccco2)cc1OC
  -7.1%	-1.1	i
- CC1CN(C(=O)Cn2c(C(F)(F)F)nc3ccccc32)CC(C)O1 (stereo not given)
  5.9%	.	i
- CCN(CC)S(=O)(=O)c1csc(C(=O)NCc2ccccc2)c1
  0.3%	-0.5	i
- Cc1ccccc1-c1noc(-c2ccccc2F)n1
  3.5%	.	i
- CCOc1ccccc1Oc1c(C)oc2cc(OC(=O)c3ccco3)ccc2c1=O
  0.8%	.	i
- CC(=O)c1cccc(NC(=O)N2CCCC2C(=O)Nc2cc(C)ccc2C)c1 (stereo not given)
  3.3%	1.1	i
- CCOc1ccc2[nH]c(=O)c(CN(Cc3cccs3)Cc3nnnn3C(C)(C)C)cc2c1
  3.0%	-0.03	i
- Cc1cc(O)c(/C=N/c2ccccn2)c(=O)o1
  -7.1%	0.6	i
- O=C(NC1CCN(Cc2nnnn2CCc2ccccc2)CC1)c1ccccc1F
  -1.1%	-0.6	i
- CN(Cc1nc2ccccc2n1C)C(=O)c1cccs1
  -0.9%	-1.1	i
- c1ccc(COn2c(-c3ccccc3)nc3c2CCc2nonc2-3)cc1
  -0.6%	0.22	i
- CC12CN3CC(C)(CN(C1)C3c1ccc(Br)cc1)C2 (stereo not given)
  0.7%	1.7	i
- CC(=O)Oc1ccc(N2C(=O)C3C4C=CC(O4)C3C2=O)cc1 (stereo not given)
  -1.0%	0.66	i
- COCCn1c(N)c(C(=O)NCc2cccs2)c2nc3ccccc3nc21
  -8.2%	2.3	i
- c1ccc2c(c1)CCCC2NC1=NCCC1 (stereo not given)
  0.9%	-0.44	i
- CCc1nc(Nc2ccc(N3CCN(C(C)=O)CC3)cc2)c2oc3ccccc3c2n1
  -9.4%	-0.33	i
- Cc1noc(COc2ccccc2OCC(O)CNC(C)(C)C)n1 (stereo not given)
  3.6%	-0.68	i
- CCn1cc(C2=NOC(C(=O)O)C2)c(C)n1 (stereo not given)
  -4.6%	-1.2	i
- COc1cc(OC)cc(-c2nnc(SCC(=O)N(C(C)C)C(C)C)o2)c1
  9.0%	0.22	i
- O=C(CN1C(=O)CCC1=O)Nc1ccc(Br)cc1
  1.2%	0.14	i
- COc1ccc(S(=O)NC2CCCCC2)c(OC)c1C (stereo not given)
  4.4%	.	i
- Cc1ccc(C(=O)OCc2nnc(-c3ccccc3)o2)o1
  -1.1%	1.1	i
- O=S(=O)(NCCc1cn2ccccc2n1)c1ccc(F)c(C(F)(F)F)c1
  -0.1%	0.0031	i
- CCN(CC)Cc1c(O)ccc2c(-c3ccccc3)cc(=O)oc12
  2.7%	-0.58	i
- CCOC(=O)C1CCCN(C(=O)CN(c2ccc(OC)cc2)S(=O)(=O)c2c(C)noc2C)C1 (stereo not given)
  1.8%	-0.04	i

3 of the compounds above, tab-delimited:
Molecule	Hsc70	WNV protease inh	MT1-MMP reporter
COc1ccc(S(=O)NC2CCCCC2)c(OC)c1C (stereo not given)	4.4%	.	i
Cc1ccc(C(=O)OCc2nnc(-c3ccccc3)o2)o1	-1.1%	1.1	i
O=S(=O)(NCCc1cn2ccccc2n1)c1ccc(F)c(C(F)(F)F)c1	-0.1%	0.0031	i

Assay outcomes: PubChem BioAssay, several laboratories

This is a random part of the collection; about 0.8% have a hit in one of these screens.
